Screening results as filed in PubChem.
BJeLR viability: kills HRASV12-expressing BJeLR cells. hit rate 0.17% among 300,000. BJeLR (HRASV12) viability, CellTiter-Glo ATP luminescence, 48 h; reference of the scale not given here. inhibition, % (concentration not given with the values);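 active means replicate mean above 50%; inconclusive means above 50% but judged a plate artefact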;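 further: 50 nL library stock added to about 25 µL; numbers are from one replicate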
ugtP null kill: growth inhibition of S. aureus ugtP deletion strain | S. aureus RN4220 ugtP deletion, OD600 growth, 16 h; some inactives read as strong as hits | growth inhibition, % (concentration not given with the values) | hit rate 0.54% among 330,000 | AID 1259309;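 active means z-score under -3 and OD600 up to 0.15 on both plates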;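 further: plate controls were untreated wells for no effect and antibiotic for full effect; wells of about 80 µL received 100 nL stock; the first replicate is given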
Sa RN4220 lethal: kills Staphylococcus aureus RN4220. S. aureus RN4220 growth, OD600, 16 h. inhibition, % (test concentration not listed). hit rate 0.33% among 330,000. AID 1259311;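 active means z-score of -3 or lower and OD600 up to 0.18 on both plates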;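 further: plate controls were untreated cells for no effect and reference antibiotic for full effect; stock transfer was 100 nL into about 80 µL; one replicate is shown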
Bead autofluor: compound fluorescence in toxin protease inhibitor counterscreen; compound autofluorescence counterscreen, microsphere flow cytometry; stronger effect = higher value; hit rate 3.1% among 360,000; fluorescence intensity (no concentration beside the values); AID 624483;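 active means at least 3 SD above the mean of all compounds, about 16000 in these data; inconclusive means too few beads counted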;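 further: 100 nL of 1 mM stock went into each well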
Mtb hypoxia rep: inhibitors of hypoxia-regulated fluorescent reporter in Mycobacterium tuberculosis | fluorescence inhibition, % (concentration not given with the values) | M. tuberculosis hypoxia-regulated fluorescent reporter, fluorescence | AID 1159583 | hit rate 0.1% among 300,000;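 active means 35 to 45% if threefold the growth effect, above 45% if 1.5-fold the growth effect; inactive means the rest, general growth blockers included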;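 further: wells of about 50 µL received 100 nL stock; 0% = vehicle wells and 100% = reference inhibitor wells; whole bacteria with a GFP reporter of the hypoxia response; strong numbers were not always called active; many hits fall short of the cut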
PrP UTR inh: suppresses PrP 5' UTR mRNA reporter expression; cell-based PrP 5' UTR mRNA reporter, plate reader; inhibition, % (no concentration beside the values); hit rate 0.35% among 340,000; AID 488862;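 active means every replicate at 50% or more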;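 further: 0 = median of the neutral control wells; tested in H4 reporter cells; numbers are from one replicate; inactives centre near -14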
Mtb hypoxia rep growth: further read-out of Mtb hypoxia rep, marked with its call; growth inhibition, %; measured here: M. tuberculosis growth (absorbance);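 0% = vehicle and 100% = reference antibiotic; read after six days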
Active calls of the source: *; ? = inconclusive; nt = not tested or not shown.

structure,BJeLR viability,ugtP null kill,Sa RN4220 lethal,Bead autofluor,Mtb hypoxia rep,Mtb hypoxia rep growth,PrP UTR inh
CCOc1ccccc1C=C1SC(=S)N(CC)C1=O,nt,51,-2.0,3880,2,24,-2
Cc1ccc(C)c(OCc2nnc(NC(=O)c3ccco3)s2)c1,-6,-6,6.4,2518,nt,nt,-32
Cc1nn(C2CCCO2)c(=O)nc1N (centres undefined),-10,5,3.3,nt,-6,8,nt
CCOC(=O)C(C)Oc1ccc2c(CC)cc(=O)oc2c1C (centres undefined),-2,4,9.6,2392,nt,nt,6
Cn1c(CCNC(=O)c2ccccc2F)nnc1SCC(=O)Nc1ccccc1F,-5,-72,12,4149,12,-4,-17
CCCCCCOC(=O)Cc1c(C)nc(-c2ccccc2)[nH]c1=O,-7,-10,-10,3090,13,5,1
COc1cccc(-c2nn(-c3ccccc3)cc2CN(C)Cc2ccno2)c1,-4,-4,7.0,1995,6,1,13
N#C/C(=C\c1c(N2CCC(C(N)=O)CC2)nc2ccccn2c1=O)C(=O)NCc1ccco1,-1,nt,nt,2325,nt,nt,-1
Cc1ccc(/C=N/NC(=O)c2ccccc2OCc2ccc(F)cc2)o1,-4,nt,nt,2009,nt,nt,6
Cc1ccc(C(=O)COC(=O)CNC(=O)c2ccccc2)s1,nt,-1,0.8,2804,-6,-10,3
COc1cccc2c1Oc1ncccc1N(C(=O)CCC(=O)NCc1ccccc1F)C2,-4,5,-0.3,5071,3,2,-17
Cc1nn(C2CCS(=O)(=O)C2)c(Cl)c1C=CC(=O)OCC(=O)Nc1ccccc1OC(F)F (centres undefined),nt,9,12,nt,4,4,nt
CC1CCN(C(=O)c2[nH]cnc2C(=O)N[C@@H](CCCCNC(=O)OC(C)(C)C)C(=O)OC(C)(C)C)CC1,-4,nt,nt,3859,nt,nt,-11
Cc1ccccc1SCC(=O)OCC(=O)Nc1sccc1C(N)=O,-16,-4,6.7,2425,3,3,-25
Cc1csc(NC(=O)CSc2nc(C)nc3c2c(=O)n(C)c(=O)n3C)n1,6,0,-5.5,6068,-3,9,-10
Clc1ccc(C(c2ccc(Cl)cc2)n2cc[n+](CC(OCc3ccc(Cl)cc3Cl)c3ccc(Cl)cc3Cl)c2)cc1 (centres undefined),nt,100*,100*,6437,nt,nt,7
CCC(CC)c1nnc(NC(=O)c2nn(C)c(=O)c3ccccc23)s1,-3,5,9.3,4446,6,7,9
N#Cc1ccc(C(=O)NCC(c2ccco2)N2CCCC2)cc1 (centres undefined),2,3,2.5,3140,nt,nt,-2
N#CC1=C(N)Oc2n[nH]c(-c3ccccc3)c2C1c1cccnc1 (centres undefined),-5,-1,0.4,4132,1,0,-12
Cc1ccc(C(=O)NC(C(=O)OCc2cn3cc(Cl)ccc3n2)C(C)C)cc1 (centres undefined),nt,3,4.1,3879,15,10,-18
CC1(C)C(CC2OCC(CN3CCCCC3)O2)[C@H]2CC[C@@H]1C2 (some centres undefined),0,19,3.8,4111,5,10,-16
CC(C)CC(COCc1ccc([N+](=O)[O-])cc1)N1CCN(C(=O)c2ccc(C(F)(F)F)cc2)CCC1=O (centres undefined),-5,2,5.0,4817,7,14,-21
CC(C)(C)c1cc(NCc2ccccn2)n2ncc(-c3ccccc3)c2n1,-11,12,-11,4573,6,0,-38
COCCCNCCOCCOc1ccc(Cl)cc1Br,-5,-3,3.6,2239,16,10,-11
O=C(CSc1nnc2ccccn12)Nc1ccccc1Cl,nt,9,6.0,3915,10,11,-10
CC(=O)Nc1ccc(S(=O)(=O)NCCSCc2ccc(Cl)cc2Cl)cc1,7,-6,-1.2,4140,nt,nt,-4
Cc1ccc(C(=O)CCC(=O)NC2CCCC(C)C2C)cc1 (centres undefined),1,-22,1.6,5048,8,0,-13
COC(=O)c1[nH]c2c(c1C)C(=O)CC(c1ccc(OC)c(OC)c1)C2 (centres undefined),-2,-13,3.4,3677,8,2,6
CCn1ncc(Br)c1C(=O)NC(C)c1ccccc1 (centres undefined),2,4,2.5,3135,3,-1,-8
COc1ccc(CCN(Cc2ccccn2)C(=S)Nc2cccc(C)c2)cc1OC,2,5,-6.0,3372,9,-7,-15
COc1ccc(CCNC(=O)Nc2cc(F)c(F)cc2Cl)cc1OC,-12,7,3.8,3578,13,10,-38
CN(C)C(=O)Oc1noc2cc(Cl)ccc12,-3,-8,1.5,4369,-9,1,-24
COc1ccc(CN2C(=O)CC(Cc3cc(C)cc(C)c3)C2=O)cc1OC (centres undefined),4,-1,-2.8,2021,-5,2,-2
Cc1ccc2nc(SCC(=O)c3ccc(Cl)s3)[nH]c2c1,-21,-28,1.0,19540*,-8,-10,-15
CC1CCC(C(C)C)C(OC(=O)COC(=O)c2ccc(=O)[nH]c2)C1 (centres undefined),2,7,3.5,3433,nt,nt,-5
Cc1c(NC(=O)C(C)OC(=O)CNC(=O)c2ccccc2)c(=O)n(-c2ccccc2)n1C (centres undefined),-6,0,0.9,9196,14,5,-24
CC12CC3CC(C)(C1)CC(C(O)CN1CCOCC1)(C3)C2 (centres undefined),9,-4,14,4376,15,7,-6
COC(=O)c1c(C)[nH]c(C(=O)COC(=O)CCNS(=O)(=O)c2cccc(C(F)(F)F)c2)c1C,nt,4,6.5,6771,6,4,-7
COC(=O)[C@H](CC(C)C)NCc1cccc(CN[C@@H](CC(C)C)C(=O)OC)c1,3,nt,nt,3872,nt,nt,-25
O=C(Cc1ccccc1)NC(NC(=S)Nc1cc(Cl)ccc1Cl)C(Cl)(Cl)Cl (centres undefined),-11,-30,-2.2,3674,10,6,-16
Cc1cc(CNC(=O)c2ccc3oc(C(C)C)nc3c2)nn1C,11,7,1.0,5683,6,0,-19
Cc1cccc(N(CC(=O)NC2CCCC2)C(=O)CCC(=O)Nc2cc(C)on2)c1,-10,2,3.6,5129,-2,2,-13
CC1(C)CC(=O)C2=C(C1)OC(N)=C(C#N)C2Cc1ccccc1 (centres undefined),-3,15,9.9,10373,0,-4,-7
COC(=O)c1cc(C)ccc1OCc1ccc([N+](=O)[O-])cc1,0,4,1.4,6110,1,2,-52
CCCNC(=O)c1c(N)n(-c2cccc(OC)c2)c2nc3ccccc3nc12,-1,-11,-2.2,20561*,-1,7,1
COc1cccc(N2C(=O)C3CCCN3C2c2ccc(N(C)C)cc2)c1 (centres undefined),-9,4,1.5,7399,nt,nt,-25
Cn1c(=O)c2ncn(CC(=O)NC3CCCCCC3)c2n(C)c1=O,20,10,3.8,3264,nt,nt,9
CCOC(=S)N/C(=N\S(=O)(=O)c1ccccc1)c1ccccc1,-6,nt,nt,3245,nt,nt,-11
Cc1ccc(SCc2nc(N)nc(Nc3ccccc3C)n2)cc1C,20,-3,6.8,2909,-10,5,-8
Cc1cc(C)c(C)c(S(=O)(=O)Nc2ccccc2C(=O)NN2CCOCC2)c1C,nt,2,8.6,3703,8,6,5
C=CCn1c(SCC(=O)Nc2sc(C)c(C)c2C(=O)OCC)nnc1-c1sc(N)nc1C,-4,-7,-3.5,2664,nt,nt,-7
O=C1C2(c3ccccc3)CN(CCO)CC1(c1ccccc1)CN(CCO)C2,12,-6,4.1,2629,nt,nt,-7
COc1ccccc1Nc1ccc(N)cc1,2,3,3.1,2391,nt,nt,0
CCOC(=O)N1CCN(C(=O)c2ccc3c(c2)N(CC)CCS3)CC1,12,-5,-6.9,5707,-1,3,-10
CC(=O)Nc1ccc(NC(=O)C(C)OC(=O)/C(C#N)=C/c2ccc(N(C)C)cc2)cc1 (centres undefined),-9,nt,nt,?,nt,nt,-48
CCNc1c(NC(=O)c2ccc3c(c2)OCO3)c(=O)oc2ccccc12,13,2,2.7,5798,9,-2,-19
Cc1cccc(N(C)S(=O)(=O)c2ccc(-c3cnc(C4CC4)o3)cc2)c1,65*,-10,11,6243,-4,-6,59*
CCN(CC(=O)Nc1ccc(NC(C)=O)cc1)C(=O)c1sc2nc3n(c(=O)c2c1C)CCC3,nt,0,-2.3,4015,-5,9,-11
CCOc1ccc(OCC)c(NC(=O)C2CCN(S(=O)(=O)c3ccc4c(c3)CC(C)N4C(C)=O)CC2)c1 (centres undefined),-3,0,-3.8,4324,-1,-3,10
NC1=NC(=O)/C(=C\c2ccsc2)S1,1,nt,nt,4415,nt,nt,-22

Further structures
structure,BJeLR viability,ugtP null kill,Sa RN4220 lethal,Bead autofluor,Mtb hypoxia rep,Mtb hypoxia rep growth,PrP UTR inh
c1ccc(NC2=NCCN2CCCC2CCCCC2)cc1,nt,15,15,2877,5,8,2
O=C(Cc1ccc(Cl)cc1)NNC(=S)NC(=O)c1cccnc1,0,6,16,2571,4,1,-7
CSc1ccccc1NC(=O)CN(C)CC(=O)Nc1ccc(Cl)cc1[N+](=O)[O-],nt,10,3.4,4330,-3,2,-32
Cc1cccc(NN=Cc2ccc(C)s2)c1,nt,12,6.1,nt,-2,3,nt
CN1C2C=C3C(C#N)=C(N)C(C#N)(C#N)[C@H](c4c(F)cccc4F)[C@H]3C1CC2 (some centres undefined),6,-8,-5.1,8534,-4,-2,-4
CC(C)(C)OC(=O)NCCCCC(NC(=O)c1nc[nH]c1C(=O)NC1CCN(C(=O)OC(C)(C)C)CC1)C(=O)OC(C)(C)C (centres undefined),nt,4,5.9,nt,6,4,nt
CCN(CC)c1ccc(NC(=O)c2cccc(C)c2)cc1S(=O)(=O)Nc1ccccc1OC,1,3,2.7,2472,1,8,-18
CC1=C/C(=C\c2ccc3c(c2)OCO3)C(=O)S1,-2,-3,6.9,3615,5,5,-3
O=C1CSC(c2ccccc2F)N1c1cc(Cl)ccc1O (centres undefined),-1,13,6.4,3514,6,6,-12
COc1ccc2[nH]c(=O)c(-c3nnn(-c4ccc(F)cc4)n3)cc2c1,-8,1,6.1,4181,6,8,-16
CNC(=O)COc1coc(CN2CCN(c3ccccc3)CC2)cc1=O,-2,5,0.4,6374,3,4,6
CCOC(=O)N1CCN(C(=O)c2cc3c(s2)-c2ccc(Cl)cc2S(=O)(=O)C3)CC1,1,5,1.5,4378,5,7,2
Cc1cc(C)cc(OCCOc2cccc(C=C3C(=O)NC(=O)NC3=O)c2)c1,-6,16,-4.9,3666,17,14,-13
COc1ccc(C(C)=NNC(=O)CNC(=O)c2cccnc2)c(OC)c1,nt,6,3.0,nt,11,-8,nt
C=C1C(=O)O[C@@H]2C[C@@H](C)[C@@H]3C=CC(=O)[C@@]3(C)[C@@H](O)[C@H]12,3,nt,nt,4434,nt,nt,56*
COc1cccc(-n2c(SCC(N)=O)nnc2-c2ccco2)c1,-1,-1,-2.8,4014,9,4,-15
CC1CCCC(C)N1C(=O)CSc1nnc(C2CCCCC2)o1 (centres undefined),-1,6,5.1,5215,0,3,-13
O=C1C=CC(=O)C(C2=C3C(=O)N(CCc4ccccc4)CC(=O)N3CCC2)=C1,0,-4,6.7,nt,-1,1,1
Cc1cc(C=NNC(=O)C(O)(c2ccccc2)c2ccccc2)c(C)n1-c1ccccc1,nt,8,0.4,nt,9,8,nt
CCCc1ccc(OCCNC(=O)c2ccco2)cc1,5,-5,-1.7,6459,-4,7,-18
OC1(c2ccccc2)Cc2cccc[n+]2C1c1ccccc1 (centres undefined),12,1,1.0,4679,5,-4,-13
Cc1ccc(S(=O)(=O)N2CCOCC2)cc1NC(=O)C1CC(=O)N(c2ccc3c(c2)OCCO3)C1 (centres undefined),-4,-1,1.7,6157,12,4,-20
COC(=O)c1ccc(CNC(=O)N2CCN(S(=O)(=O)c3ccc(C)cc3)CC2)cc1,-5,16,6.0,3734,0,1,-35
CCCC(=O)Nn1cnc2c(c1=O)C1(CCCC1)Cc1ccccc1-2,1,1,0.8,5081,nt,nt,-8
O=C(Nc1cccc(S(=O)(=O)c2cccc(NC(=O)c3ccco3)c2)c1)c1ccco1,10,0,1.2,3947,9,3,-11
